TRPML1 agonist: activates the human TRPML1 channel | 410,000 compounds, 0.12% hits | Q9GZU1 | AID 624414 | activation, % (test concentration not listed) | TRPML1-expressing cells, Ca2+ dye fluorescence, FDSS; host cell line not named in the record; reference of the full effect not given here; in the data active = activation above about 50%; inconclusive = about 30% to 50%; inactive = below about 30%; further: 0% is about no effect; the text of the record puts the active cut at 80%
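In this qHTS format, compounds were pin-transferred onto Ca8-dye-loaded TRPML1-DL cells induced with Tet overnight, and intracellular Ca2+ fluorescence was recorded kinetically for 110 s after a 10 s baseline. A subsequent 4uM final 54-4 (EC80) addition followed by a second 110 s read served as the antagonist phase.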
D2 ag: human D2 receptor agonism in beta-arrestin assay; P14416; activation, % (no concentration beside the values); DiscoveRx PathHunter D2 beta-arrestin, luminescence, 90 min; 100% = 57 uM dopamine signal; AID 624465; 360,000 compounds, 0.084% hits; in the data active = activation above about 40%; inconclusive = about 15% to 40%; inactive = below about 15%; further: compound concentration not given in the record; the text of the record calls up to 30% inactive
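DiscoveRx PathHunter D2 beta-arrestin cells (2,100/well) attached overnight, then compound-stimulated 90 min at 37 C in HBSS/10 mM HEPES/0.1% Tween-20 buffer; beta-galactosidase complementation read by luminescence after 1 h at ambient temperature. Dopamine 57 uM final (EC100) as control.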
CtBP-E1A inh: blocks the CtBP interaction with E1A. AID 651724. 340,000 compounds, 0.49% hits. AlphaScreen GST-E1A/His-CtBP binding, 1536-well; hits give low values; control for the full effect not named in the record. activity change, % (test concentration not listed); in the data active means activity change below about -65%; inconclusive means about -30% to -65%; inactive means above about -30%; further: on the % scale 0 is the no-effect control and ±100 the full control effect
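GST-E1A and His-tagged CtBP (125 nM each as 5X stock) were preincubated with pin-transferred compound for 2 h at 37 °C in the dark, then glutathione donor and nickel acceptor beads were added for 1 h before AlphaScreen reading.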
PINK1 expr mod: modulators of PINK1 expression; PINK1 immunofluorescence, high-content cytometry, 24 h; AID 624263; 410,000 compounds, 0.2% hits; Potency, µM (titrated, usually from 76.6 µM), for inactives: top-dose activation (PINK1 increase), hits mostly activators; active = well fitted activation curve with a large enough effect; inconclusive = small, poorly fitted or top-dose-only effect; inactive = flat fitted curve, though single readings scatter; cell line not stated here;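 further: potency means the concentration at half of the fitted maximal effect; % of control where 0% means no effect; nearly all actives have a fitted effect of over 65% in size; a mitochondrial uncoupler was the plate control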
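A stable cell line was treated with compounds at 5 concentrations for 24 hours, with CCCP as control. PINK1 levels and mitochondrial localization were measured by immunofluorescence with mitochondrial, cell and nuclear markers after fixation, read by laser-scanning cytometry.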
Six1-Eya2 blk: blocks human Six1 binding to Eya2. Q15475+O00167. AlphaScreen GST-Six1/His-Eya2 binding, biochemical; hits give low values; control for the full effect not named in the record. activity change, % (concentration not given with the values). 360,000 compounds, 0.56% hits; in the data active = activity change below about -65%; inconclusive = about -30% to -65%; inactive = above about -30%; further: on the % scale 0 is the no-effect control and ±100 the full control effect
Target sequence (O00167 whole entry, looked up): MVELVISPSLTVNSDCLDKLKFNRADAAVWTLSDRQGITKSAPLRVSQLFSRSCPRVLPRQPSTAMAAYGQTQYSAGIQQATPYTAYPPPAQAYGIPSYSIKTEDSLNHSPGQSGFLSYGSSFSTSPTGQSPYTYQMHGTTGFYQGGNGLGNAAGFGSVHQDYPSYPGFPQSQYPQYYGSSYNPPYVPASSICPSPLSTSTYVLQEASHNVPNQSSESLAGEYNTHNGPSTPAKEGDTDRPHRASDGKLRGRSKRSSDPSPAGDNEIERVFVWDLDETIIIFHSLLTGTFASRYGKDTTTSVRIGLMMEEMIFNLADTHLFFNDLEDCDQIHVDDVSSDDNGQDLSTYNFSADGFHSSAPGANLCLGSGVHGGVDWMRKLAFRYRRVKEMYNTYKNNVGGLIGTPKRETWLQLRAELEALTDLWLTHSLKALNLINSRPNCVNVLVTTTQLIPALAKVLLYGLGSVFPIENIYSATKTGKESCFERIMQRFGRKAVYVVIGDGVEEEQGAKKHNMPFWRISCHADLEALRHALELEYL
Target sequence (Q15475 whole entry, looked up): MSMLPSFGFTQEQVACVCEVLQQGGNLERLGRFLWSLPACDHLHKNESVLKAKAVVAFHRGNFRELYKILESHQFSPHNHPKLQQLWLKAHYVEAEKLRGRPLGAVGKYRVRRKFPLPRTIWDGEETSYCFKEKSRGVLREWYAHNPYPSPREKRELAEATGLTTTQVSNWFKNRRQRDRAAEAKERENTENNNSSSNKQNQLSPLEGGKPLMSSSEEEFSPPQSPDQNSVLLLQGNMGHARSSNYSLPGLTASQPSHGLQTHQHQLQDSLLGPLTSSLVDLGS
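Compounds are tested against tagged Six1 and Eya2 proteins bridged by glutathione donor and nickel acceptor beads; after a one-hour incubation at 37 °C without light, AlphaScreen emission is recorded.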
D2 PAM: positive allosteric modulators of human D2 dopamine receptor; P14416; DiscoveRx D2 beta-arrestin cells, luminescence, 90 min; 100% = 57 uM dopamine signal; potentiation, % (no concentration beside the values); 360,000 compounds, 0.23% hits; AID 624464; active = potentiation of 50% or more; inconclusive = 30% to 50%; inactive = 30% or less;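 further: compound concentration not given in the record; tested on top of an EC20 dose of dopamine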
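PathHunter beta-arrestin assay in DiscoveRx D2 cells. Compounds were added with an EC20 of dopamine (50 nM final) for 90 min at 37 deg C. Luminescence was read 1 h after detection reagent, with 57 uM dopamine as the EC100 control.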
* = called active by the depositor; ? = inconclusive; · = not tested or not shown; [ ] = remark or other dose.

SMILES	TRPML1 agonist	D2 ag	CtBP-E1A inh	PINK1 expr mod	Six1-Eya2 blk	D2 PAM
COc1cc(Cl)c(C)cc1NC(=O)COC(=O)c1cnc(C)cn1	-1.1	-0.7	7.3	0.3%	-3.4	-11.7
CCCCNC(=O)C1(C)CCCCN1C(=O)c1ccno1 (stereo not drawn)	-0.3	-2.6	7.1	0.8%	2.4	0.9
OCCC1CN(CC2CCCCC2)CCN1CC1CCCCC1 (stereo not drawn)	0.2	-4.1	-0.7	4.5%	2.1	-24.8
CN1c2ccccc2C(=O)C(=C2SCCCS2)S1(=O)=O	-0.1	-1.5	·	0.1%	-1.3	-17.0
CSc1ccc(OCC(=O)Nc2ccc(N3CCOCC3)c(Cl)c2)cc1	-0.1	-0.5	-2.4	-2.3%	-12.7	-0.5
Cc1cccc(NC(=O)c2ccccc2Br)n1	-0.9	-0.2	5.8	3.0%	-6.5	-6.7
CCOc1ccccc1-c1nc(-c2cc3ccc(C)cc3[nH]c2=O)no1	0.6	-2.1	2.0	-0.6%	-0.3	-18.3
COC(=O)c1ccc(CN2CCC(n3nccc3NC(=O)C3CC3)CC2)cc1	-0.2	-2.3	2.3	0.3%	-1.1	-34.2
COc1cccc(CNC(=O)C2CCN(S(=O)(=O)c3ccc4c(c3)OCCO4)CC2)c1	-0.1	0.2	-1.0	-1.5%	-7.1	10.5
COc1cc(OC)c2c(=O)cc(-c3cccnc3)oc2c1	-0.6	0.9	·	9.3%	-11.9	0.7
COc1ccc(C2C(C#N)=C(N)Oc3n[nH]c(C)c32)cc1CN1CCN(c2ccc(F)cc2)CC1 (stereo not drawn)	0.2	-0.4	-14.2	-7.0%[38.3 µM]	-15.0	-16.5
CCN(CC)c1ccc(C2CC(=O)Nc3cc(OC)c(OC)cc32)cc1 (stereo not drawn)	2.4	1.7	-2.1	-2.4%	?	-10.7
COc1ccc(OC)c2c(C)cc(N3CCN(C(=O)c4ccc(C)cc4)CC3)nc12	3.8	-1.1	-5.5	-0.5%	10.8	-7.4
N#Cc1ccc(/C=N/NC(=O)c2ccccc2F)cc1	-0.2	-1.0	-5.7	0.6%	-0.8	-14.8
CC1CCCCN1C(=O)CSc1nnc(-c2cccs2)o1 (stereo not drawn)	-0.5	-0.2	7.6	3.2%	8.6	-4.3
C=CCN(C(=O)c1ccc2c(c1)nnn2C)c1ccccc1	0.1	-4.2	2.2	-0.4%	0.0	-5.1
CCOC(=O)CCCC(=O)N1CCOCCOCCOCC1	0.1	-7.9	-0.6	4.1%	2.1	-4.7
COc1cc2ccccc2cc1C(=O)NC(=S)Nc1nnn(C)n1	-0.3	-2.1	5.9	9.0%	-4.1	-2.2
c1ccc2c(c1)N1CCN=C1N2CCN1CCCCC1	-0.7	-2.3	18.2	-1.9%	2.1	?
Cc1cc(C)c(NC(=O)C2CC3CCC2C3)c(C)c1 (stereo not drawn)	·	1.8	·	1.8%	4.1	-3.4
COc1ccc(N2C(=O)C(Cc3ccccc3)NC2=S)cc1 (stereo not drawn)	-0.9	-10.2	-2.2	0.1%	1.9	-29.1
CCc1ccc(C(=O)COC(=O)CNC(=O)c2ccco2)cc1	0.7	-1.1	5.1	1.1%	0.2	-4.9
ONC(=Nc1ccccc1Cl)c1c(F)cccc1F	0.5	5.0	·	1.2%	-5.8	-15.6
CN(C(=O)COC(=O)c1cc2ccccc2cc1O)c1ccccc1	-1.8	2.5	·	1.9%	-1.6	4.2
COc1ccccc1Oc1ncnc2c1cnn2-c1ccccc1	2.3	-1.3	11.2	0.1%	23.3	-2.9
Cc1oc(-c2ccccc2)nc1C(=O)O	1.7	-1.6	-1.6	-0.3%	0.4	1.2
CC12CCC(=O)N1C(C(=O)OCC(=O)Nc1ccc(S(N)(=O)=O)cc1)CS2 (stereo not drawn)	-0.2	1.0	6.1	1.1%	1.8	-16.0
CSc1ncccc1C(=O)NCC(=O)Nc1ccc(F)c(F)c1	0.0	2.5	-0.1	1.5%	1.5	-7.4
O=C(CSc1nc2ccccc2c(=O)n1CCCN1CCOCC1)N1CCN(c2ccccc2)CC1	0.4	-6.0	-1.9	1.1%	3.0	-9.4
CCOc1ccccc1/C=N/Nc1ccc(Cl)nn1	0.5	2.9	-20.8	5.9%	-21.4	4.0
CC1=C(C(=O)OC2CCCC(C)C2)C(c2ccccc2)NC(=O)N1 (stereo not drawn)	0.0	-3.6	·	0.7%	0.0	-0.3
Cc1ccc(NC(=O)CSCC(=O)NCc2cccc(C(F)(F)F)c2)cc1	-0.3	-7.6	9.4	3.1%	4.2	-10.3
N/C(=N\c1nc2c(c(=O)[nH]1)CCC2)Nc1ccccc1C(F)(F)F	1.0	-1.3	-7.4	-5.0%[38.3 µM]	-0.2	-9.2
COc1cc(OC)cc(-c2ncc3ccccn23)c1	-0.5	-5.6	-2.4	4.5%	-6.2	-24.2
COc1ccccc1N1CCN(c2ccc3c(c2)S(=O)(=O)c2cccc(C(=O)NCc4ccc(F)cc4)c2C3=O)CC1	-0.4	-5.1	-5.0	1.8%	-7.6	0.5
COCCNC(=S)N1CCC(NC(=O)C23CC4CC(CC(C4)C2)C3)CC1	-0.1	-0.3	6.0	-1.1%	0.2	-3.9
COc1cc(/C=N/Nc2nc(Nc3ccccc3)nc(N3CCOCC3)n2)ccc1OC(=O)c1ccco1	2.3	12.1	-11.6	-0.6%	-8.6	19.7
COc1ccc(/C=C2/SC(=S)N(n3c(C)ccc3C)C2=O)cc1	-0.3	0.9	-15.2	5.0%	-27.8	-9.8
CCCCN1C(=O)C(CC(=O)NCCN2CCOCC2)CC(C(=O)N(C(C)C)C(C)C)=C1C (stereo not drawn)	-0.2	1.0	-15.7	2.0%	-6.4	2.9
Nc1c(NC2CCCCC2)c2ccccc2oc1=O	-0.1	1.2	-8.0	-3.7%[38.3 µM]	-0.4	0.2
Cc1sc2ccccc2c1CNC[C@H]1O[C@@H](n2ccc(N)nc2=O)[C@H](O)[C@@H]1O	0.4	-7.1	-11.2	2.3%	2.0	-2.9
CCOc1ccc2nc(NC(=O)C3=NNC(=O)CC3)sc2c1	0.0	-1.4	4.9	0.1%	0.3	-5.2
O=C(Nc1ccc(CN2CCS(=O)(=O)CC2)cc1)c1ccccc1	4.7	-3.4	-6.4	-0.6%	-2.9	-4.8
Cc1cc(C(=O)NN=C(Cc2ccccc2)Cc2ccccc2)c(C)o1	0.4	-4.1	0.0	10.9%	20.1	-7.5
COc1ccc(-c2cc(C3CCN(c4ccc(C(C)=O)cc4[N+](=O)[O-])CC3)[nH]n2)cc1	-0.7	-3.3	-23.7	-19.0%[38.3 µM]	-21.7	9.3

Complete entries, quoted from the list. Values in the order: TRPML1 agonist, D2 ag, CtBP-E1A inh, PINK1 expr mod, Six1-Eya2 blk, D2 PAM
Record of Cc1ccc(NC(=O)CSCC(=O)NCc2cccc(C(F)(F)F)c2)cc1 → -0.3, -7.6, 9.4, 3.1%, 4.2, -10.3
Record of CCCCN1C(=O)C(CC(=O)NCCN2CCOCC2)CC(C(=O)N(C(C)C)C(C)C)=C1C (stereo not drawn) → -0.2, 1.0, -15.7, 2.0%, -6.4, 2.9
Record of Cc1sc2ccccc2c1CNC[C@H]1O[C@@H](n2ccc(N)nc2=O)[C@H](O)[C@@H]1O → 0.4, -7.1, -11.2, 2.3%, 2.0, -2.9
Record of Nc1c(NC2CCCCC2)c2ccccc2oc1=O → -0.1, 1.2, -8.0, -3.7%[38.3 µM], -0.4, 0.2

(further entries)
SMILES	TRPML1 agonist	D2 ag	CtBP-E1A inh	PINK1 expr mod	Six1-Eya2 blk	D2 PAM
Cc1nc([N+](=O)[O-])c(SCC(N)=O)n1Cc1ccccc1	0.5	-2.6	·	-0.8%	3.5	14.9
Nc1cc(Cl)ccc1C(=O)OCC(=O)NC1CCCCCCC1	1.1	3.5	-2.0	1.2%	8.2	5.1
CC(C)Oc1ccc(C(=O)N(CN2CCCC2=O)c2ccc(F)cc2)cc1	-0.1	-1.8	46.7	2.8%[38.3 µM]	23.9	-4.4
COC(=O)C(NC(=O)c1ccco1)(Nc1cc(C)ccn1)C(F)(F)F (stereo not drawn)	0.4	3.2	-2.3	0.1%	7.4	-1.6
CCN(CC)S(=O)(=O)c1ccc(OC)c(NC(=O)/C=C/c2ccco2)c1	·	-3.6	0.5	1.5%	-4.2	-2.0
C/C(=N\Nc1ccc(S(N)(=O)=O)cc1[N+](=O)[O-])c1ccccc1O	3.4	-2.8	2.2	7.3%	1.1	0.4
CC1(c2nnc(Cc3ccccc3)o2)CC(c2cccc(Cl)c2)=NO1 (stereo not drawn)	-0.3	-2.7	16.0	0.1%	7.9	-11.0
CCCCNC(=O)C1c2ccccc2OCC(=O)N1CCc1ccccc1 (stereo not drawn)	-0.3	·	-4.2	-0.8%	7.1	·
C/C(=N\Nc1nc(C)cc(-c2ccccc2)n1)c1ccccc1	-0.1	-7.3	6.1	2.1%	15.4	-5.0
CCN(Cc1cccs1)C(=O)CN1CCN(S(=O)(=O)c2ccc3c(c2)OCCCO3)CC1	-0.1	1.1	-16.3	-1.1%	-0.8	-8.0
COc1ccc(-n2c(C)cc(C(=O)CN3C(=O)C(=O)N(Cc4ccccc4)C3=O)c2C)cc1	0.5	-7.1	-3.7	5.0%	-23.5	0.6
CCOC(=O)/C=C/C(=O)OCC(=O)Nc1cccc(Br)c1	1.4	2.3	-16.8	3.5%	11.2	4.6
COc1ccc(N2C(=O)C3CCCN3C2c2ccc(F)cc2)cc1Cl (stereo not drawn)	-0.2	-3.8	2.3	-5.0%	1.0	-4.9
CN(C)/C=C(\C#N)C(=O)Nc1ccc(F)cc1	-0.3	-0.6	-1.4	2.1%	10.7	0.0

6 structures from above, arranged by length of the SMILES, low to high.
SMILES	TRPML1 agonist	D2 ag	CtBP-E1A inh	PINK1 expr mod	Six1-Eya2 blk	D2 PAM
Nc1cc(Cl)ccc1C(=O)OCC(=O)NC1CCCCCCC1	1.1	3.5	-2.0	1.2%	8.2	5.1
CCOC(=O)/C=C/C(=O)OCC(=O)Nc1cccc(Br)c1	1.4	2.3	-16.8	3.5%	11.2	4.6
C/C(=N\Nc1nc(C)cc(-c2ccccc2)n1)c1ccccc1	-0.1	-7.3	6.1	2.1%	15.4	-5.0
COC(=O)C(NC(=O)c1ccco1)(Nc1cc(C)ccn1)C(F)(F)F (stereo not drawn)	0.4	3.2	-2.3	0.1%	7.4	-1.6
CCN(Cc1cccs1)C(=O)CN1CCN(S(=O)(=O)c2ccc3c(c2)OCCCO3)CC1	-0.1	1.1	-16.3	-1.1%	-0.8	-8.0
COc1ccc(-n2c(C)cc(C(=O)CN3C(=O)C(=O)N(Cc4ccccc4)C3=O)c2C)cc1	0.5	-7.1	-3.7	5.0%	-23.5	0.6
